# E coli growth = E. coli growth inhibition | Escherichia coli growth, OD600, 23 h; stronger effect = lower value | OD600 absorbance (concentration not given with the values) | 330,000 tested, 0.21% active | AID 1053175;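 active = OD600 absorbance below the run mean of sample wells minus 3.6 SD, in any replicate, cut at about 0.56 in these data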;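 note: stock transfer was 300 nL into about 60 µL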
# HNF4A DNA FP = change in binding of human HNF4 alpha to DNA | 360,000 tested, 0.3% active | P41235 | HNF4a-FITC DNA binding, fluorescence polarization, 1 h | AID 1224865 | activity change, % at 10 µM; in the data active = activity change above about 30%, passing the limit was not always enough;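 note: controls were the assay level and a saturating level of protein; the project sought stronger binding though the title names inhibitors; some compounds called inactive have numbers as strong as hits; positive values seem to mean higher polarization but the record does not say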
# FGF22 binding = FGF22 (human) thermal shift binding; Q9HCT0; recombinant FGF22 thermal shift, SYPRO orange fluorescence; percent of sucrose octasulfate shift, DMSO zero; calls only at 9.99 µM; 340,000 tested, 1.5% active;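 active = melting point raised past a set limit in the mean and every replicate; inconclusive = no clear call; three in four hits are not shown here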
# Target sequence (Q9HCT0 whole entry, looked up): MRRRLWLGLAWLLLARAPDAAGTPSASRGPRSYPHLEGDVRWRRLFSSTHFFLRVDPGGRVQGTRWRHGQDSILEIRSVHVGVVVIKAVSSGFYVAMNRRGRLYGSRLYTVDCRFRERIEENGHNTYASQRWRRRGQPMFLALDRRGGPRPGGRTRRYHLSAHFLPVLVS
# UCH37 inh = human UCH37 deubiquitinating enzyme inhibition | Q9Y5K5 | purified proteasome/UCH37, Ub-AMC cleavage fluorescence | inhibition, % (no concentration beside the values) | 330,000 tested, 0.33% active;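 active = mean of two replicates above 20%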;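 note: 0% = compound-free wells with enzyme and 100% = wells lacking proteasome; stock transfer was 100 nL into about 20 µL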
# Target sequence (Q9Y5K5 whole entry, looked up): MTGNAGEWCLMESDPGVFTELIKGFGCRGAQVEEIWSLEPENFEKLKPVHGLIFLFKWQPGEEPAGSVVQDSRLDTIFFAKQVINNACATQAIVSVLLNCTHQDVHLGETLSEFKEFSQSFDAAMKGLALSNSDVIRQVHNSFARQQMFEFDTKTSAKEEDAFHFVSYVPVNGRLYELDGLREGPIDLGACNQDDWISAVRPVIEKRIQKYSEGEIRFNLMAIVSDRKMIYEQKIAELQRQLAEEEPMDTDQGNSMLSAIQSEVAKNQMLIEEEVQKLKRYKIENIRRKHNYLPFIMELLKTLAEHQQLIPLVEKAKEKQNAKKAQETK
#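 assay system = human UCH37 enzyme supplied as purified proteasome complex | amount = proteasome at 0.15 nM in the dispensed enzyme solution | schedule = 30 min compound-proteasome preincubation then 25 min substrate reaction, room temperature | measured by = fluorescence, ex 355 nm, em 460 nm | benchmarks = no-proteasome wells (full inhibition) and compound-free wells (no inhibition)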
# MLL AF4-AF9 inh = blocks AF4 peptide binding to human AF9; P42568; AlphaScreen, biotin-AF4 peptide binding to FLAG-AF9; inhibition, % at 10 µM; 350,000 tested, 0.47% active; AID 651704;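 active = every replicate reaching a set inhibition limit, whatever the replicate mean, cut at about 25% in these data; inconclusive = mean inhibition reaches that limit but some replicates miss it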;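 note: 0% = plate neutral control median and 100% = total signal loss; the record names both 10 and 1 µM as test concentration; the first replicate is given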
# Target sequence (P42568 whole entry, looked up): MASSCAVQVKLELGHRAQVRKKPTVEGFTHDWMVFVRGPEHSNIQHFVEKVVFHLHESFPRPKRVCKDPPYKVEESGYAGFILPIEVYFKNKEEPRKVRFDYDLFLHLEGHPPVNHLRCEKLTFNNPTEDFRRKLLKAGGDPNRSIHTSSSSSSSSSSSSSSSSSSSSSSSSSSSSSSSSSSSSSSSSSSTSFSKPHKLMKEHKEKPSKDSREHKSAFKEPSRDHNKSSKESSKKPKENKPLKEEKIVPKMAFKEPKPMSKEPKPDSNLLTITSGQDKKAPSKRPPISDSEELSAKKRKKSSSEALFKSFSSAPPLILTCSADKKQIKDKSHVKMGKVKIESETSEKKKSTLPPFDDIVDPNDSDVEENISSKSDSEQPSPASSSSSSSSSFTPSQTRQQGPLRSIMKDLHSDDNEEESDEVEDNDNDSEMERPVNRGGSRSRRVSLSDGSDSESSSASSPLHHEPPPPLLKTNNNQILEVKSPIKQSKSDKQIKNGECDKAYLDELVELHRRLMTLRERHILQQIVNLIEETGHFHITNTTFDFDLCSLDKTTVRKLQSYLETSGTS
# Vif A3G = HIV-1 Vif–A3G interaction blockers – biochemical, TR-FRET, GST-Vif 1-94, biotin-A3G peptide, dose response retest, primary screen (AID 1117319). TR-FRET GST-Vif / biotin-A3G peptide binding; higher % means a stronger effect; test concentration not given here; strong numbers were not always called active. one-dose inhibition, %; IC50 in µM for titrated hits. 260,000 tested, 0.57% active;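 active = above the screen mean plus three standard deviations and confirmed in dose response; inconclusive = results disagree or hit not tested in dose response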;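 note: Vif residues 1-94 fused to GST binding biotinylated APOBEC3G peptide 110-148; 0% = full assay without inhibitor and 100% = GST in place of GST-Vif; retest series ran down from 100 µM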
# RanGTP-Impb inh = disruptors of Ran-importin-beta complex formation – biochemical, FRET, CFP-Ran, YFP-importin-beta, homogeneous, primary screen; cell-free CFP-Ran/YFP-importin-beta FRET ratio; inhibition, % (test concentration not listed); 300,000 tested, 1.1% active;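 active = most replicates above 15%; inconclusive = exactly half above 15%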;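 note: 0% = DMSO wells and 100% = Ran loaded with GDP instead of GTP; wells of about 40 µL received 100 nL stock; the first replicate is given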
# Active calls of the source: *; i = inactive; ? = inconclusive; . = no result given; & = joins results of further samples. These rows are one share of the data (hit frequency here may not be typical).
# Under each structure: FGF22 binding, E coli growth, HNF4A DNA FP, RanGTP-Impb inh, UCH37 inh, MLL AF4-AF9 inh, Vif A3G
- CCOC(=O)c1cc(=O)c2ccc(OCC(=O)Nc3ccc(F)cc3)cc2o1
    i, 0.68, 2.7, 4.3, 5.2, 0.5, ?
- COc1ccc(S(=O)(=O)Nc2ccc3c(c2)C(=O)N([C@@H](C)CO)C[C@H](C)[C@H](CN(C)S(=O)(=O)c2ccc(F)cc2)O3)cc1
    i, 0.74, 3.4, ., 4.2, 4.0&0.7, -8%
- O=C(CSc1nccc(=O)[nH]1)c1ccccc1Br
    i, 0.72, 5.5, -0.5, 2.0, 2.1, 14%
- O=S(=O)(NCc1cn2ccsc2n1)c1ccc2c(c1)OCCO2
    ., 0.71, -1.5, -2.4, 3.9, ., -16%
- O=C(COc1ccccc1)NCc1ccc(-n2cccc2)cc1
    i, 0.74, -3.5, 3.4, 3.7, -0.1, -3%
- NS(=O)(=O)c1ccc(N2CCOCC2)c(C(=O)NCCCSc2ccccc2)c1
    i, 0.71, -0.3, ., 1.7, 2.9, .
- Cc1ccc(NC(=O)c2c(C)noc2C)cc1S(=O)(=O)N1CCOCC1
    i, 0.72, 3.2, ., 1.7, -0.7, 7%
- COc1ccccc1N(CC(=O)Nc1ccccc1C(=O)NCC(C)C)S(C)(=O)=O
    ., 0.66, 0.6, -0.9, 3.3, ., ?
- C#CCSc1nc2ccccc2n1C(=O)c1ccc(S(=O)(=O)N2CCCCC2)cc1
    i, 0.63, 2.7, ., 2.6, 1.6, .
- Cc1cccc(C)c1NC(=O)COC(=O)c1ccccc1Nc1ccccc1
    ., 0.7, -1.3, 1.4, -84, ., -3%
- C=CCNC(=O)c1ccc2c(c1)S(=O)(=O)c1ccccc1C2=O
    i, 0.61, -0.9, -3.8, 2.6, -0.2, .
- CCN(CC)C(=O)C1=C(C)N(CCCOC)C(=O)C(CC(=O)NCc2ccco2)C1 (stereo not given)
    i, ., 4.0, ., ., 1.6, 4%
- CCC(=O)Nc1ccc2c(c1)nc(CN1CCN(C(C)=O)CC1)n2C
    ., 0.73, 0.1, 0.3, 1.5, ., 0%
- O=C(CCl)Nc1ccc(Oc2cnc3ccccc3n2)cc1
    ., 0.72, 3.2, -2.8, 1.0, ., 12%
- Cc1nn(C)c2ncc(C(=O)c3ccccc3O)cc12
    i, 0.7, -0.7, -2.3, 2.9, 1.9, -7%
- COCCCC1CCN(Cc2cn[nH]c2-c2cc(OC)c(OC)c(OC)c2)CC1
    i, 0.66, 2.5, 6.5, 0.6, 1.7, -14%
- COC(=O)c1c(-c2cccs2)csc1NC(=O)c1cccnc1
    ., 0.66, -3.5, -0.4, -3.0, ., 15%
- Cc1cc(-c2ccccc2)nc(N/N=C/c2ccccc2)n1
    i, ., -3.2, -0.8, ., 15, .
- Cc1cc(C(=O)Nc2ccc(C#N)cc2)on1
    i, 0.68, 1.8, -0.4, 5.0, -2.5, 5%
- Nn1c(SCC(=O)NCCC2=CCCCC2)nnc1-c1cccnc1
    i, 0.69, -0.4, ., 2.9, -2.8, -1%
- CN(CC(=O)Nc1cccc(F)c1)C(=O)c1ccc(S(=O)(=O)N2CCCC2)cc1
    i, 0.69, 1.1, ., 2.3, -3.5, .
- CC(C)N(C(C)C)S(=O)(=O)c1ccc(N2CCc3ccccc3C2)nc1
    i, ., 6.2, -1.8, ., -0.3, .
- Cc1cc([N+](=O)[O-])cc2c1NC(=O)C2(O)N1CCOCC1 (stereo not given)
    i, 0.7, -0.3, -2.0, 14, 0.2, -1%
- CCSc1nnc(NC(=O)CCNS(=O)(=O)c2ccccc2F)s1
    i, 0.65, 1.2, -2.2, 7.0, -1.9, .
- Cc1ccc(O)c(C2=NOC(O)(C(F)(F)C(F)F)C2)c1 (stereo not given)
    i, 0.63, -2.5, -1.5, 1.9, -5.1, 5%
- Cc1cc2c(c(=O)o1)C(Cc1ccccc1)C(C#N)=C(N)O2 (stereo not given)
    ., 0.7, -3.6, -3.3, 0.2, ., 4%
- Cc1ccc2nc(-c3cccc(Br)c3)cc(C(=O)Nn3cnnc3)c2c1
    i, 0.72, -2.7, ?, 7.0, -3.4, ?
- COC(=O)Cn1c2ccc(F)cc2c2nc(C)sc21
    ., 0.68, 2.5, 1.0, 5.7, ., 7%
- CC1CC(=O)N(CC(=O)N2CCCC2)c2ccccc2S1 (stereo not given)
    i, 0.74, 0.3, 1.8, 3.1, 1.7, 3%
- O=C(CSc1nccn1Cc1ccco1)Nc1cccc(F)c1
    i, 0.64, -1.0, 2.9, 1.3, 6.4, .
- CCn1c(=O)c2c(nc3n2CCN3c2ccccc2)n(C)c1=O
    i, 0.68, -1.0, 0.1, -0.6, 0.0, 32%
- CCN(CC)c1c2c(c(C#N)c3nc4ccccc4n13)CCC2
    ., 0.72, 3.9, ?, -43, ., 3%
- Cc1ccc(NC(=O)CNC(=O)OCc2ccccc2)cc1C
    i, 0.7, -1.2, 1.1, 2.4, -1.3, 18%
- CCOC(=O)c1sc(NC(=S)NC(=O)C2CC2)cc1C
    i, 0.69, 1.0, 3.0, 2.2, -38, -19%
- Cc1ccccc1-c1nnc(SCC(=O)N(C)c2c(N)n(Cc3ccccc3)c(=O)[nH]c2=O)n1C
    ., 0.67, -2.3, -1.1, 4.8, -0.8, -8%
- COC(=O)C1=C(C)NC(=S)NC1c1ccc(OCC(=O)N2CC(C)OC(C)C2)c(OC)c1 (stereo not given)
    i, 0.68, -1.6, ., -1.5, -0.7, -21%
- COc1ccccc1C1C(C#N)=C(N)Oc2cc(C)n(Cc3ccccn3)c(=O)c21 (stereo not given)
    ., 0.68, -2.3, 2.2, -0.4, ., ?
- Fc1ccc(-c2cc(C(F)(F)C(F)F)[nH]n2)cc1
    i, 0.63, -7.3, -1.6, 3.4, -1.1, -5%
- CC(C)[C@H](NC(=O)[C@H](Cc1ccccc1)n1c(=O)[nH]c2ccccc2c1=O)C(=O)N1CCC[C@H]1C(=O)O
    i, 0.76, 3.4, -4.9, 0.0, -2.5, .
- COc1ccccc1N(CC(=O)N/N=C/c1ccc(SC)cc1)S(C)(=O)=O
    ., ., -0.6, 1.6, ., ., -2%
- CCOc1ccc(N(CC(=O)NC2CCCCC2)C(=O)CCC(=O)Nc2nccs2)cc1
    i, 0.7, 1.2, ?, 4.6, 1.6, .
- CCn1c(=O)c(CCC(=O)N2CCN(c3ccccn3)CC2)c(C)c2c(C)nn(-c3ccccc3)c21
    i, 0.69, 3.3, 0.7, -0.5, -3.3, 1%
- CCc1ccc(NC(=S)N2CCC(NC(=O)c3ccccc3OC)CC2)cc1
    i, 0.68, 3.2, -0.9, 3.1, 2.8, .
- CC(C)N(C(=O)CSc1nnc(CSc2ncccn2)n1C)C(C)C
    i, 0.67, -0.3, ., 2.0, -0.5, -1%
- CCCNC(=O)C1(C)CCN(Cc2ccc(Oc3ccccc3)cc2)C1 (stereo not given)
    i, ., -1.0, ., ., 1.7, .
- O=C(CCS(=O)(=O)c1ccccc1)N1CCN(c2ccc(F)cc2)CC1
    i, 0.72, -6.0, ?, -1.4, 0.6, .
- O=[N+]([O-])c1ccc(N/N=C/c2ccccc2)c(F)c1
    i, ., 12, 12, ., 10, .
- O=C(Nc1ccccc1)N(CCCN1CCOCC1)Cc1cc2cc3c(cc2[nH]c1=O)OCCO3
    ., 0.69, -2.8, -9.5, -12, ., 25%
- COc1ccc(CC(=O)OCC(=O)NCc2ccc(Cl)cc2)cc1
    i, 0.69, 2.2, -0.5, -0.4, -2.4, -7%
- CCCc1nnc(NC(=O)c2cn(CC)c3cc(N4CCN(C)CC4)c(F)cc3c2=O)s1
    i, 0.07*, 1.6, -1.8, 4.3, 0.0, -4%

# Next section.
# Under each structure: FGF22 binding, E coli growth, HNF4A DNA FP, RanGTP-Impb inh, UCH37 inh, MLL AF4-AF9 inh, Vif A3G
- COc1cccc(CNC(=O)CCS(=O)(=O)c2cc3c(cc2C)NC(=O)CO3)c1
    i, 0.65, -3.6, -0.9, 6.3, -4.7, .
- O=C(NNC(=O)c1ccc(Br)o1)c1ccc(NC(=O)c2ccccc2)cc1
    i, 0.67, 0.0, 0.8, -0.8, -1.0, 4%
- CCOC(=O)c1[nH]c2cc(OC)c(OC)cc2c1NC(=O)CCN1CCSCC1
    i, 0.63, -0.6, -3.7, -219, -2.1, .
- Cc1ccc(C)c(N/C(N)=N/c2nc(C)cc(C)n2)c1
    i, 0.62, 3.9, 1.9, 3.5, 4.0, 0%
- COCCCN1C(=O)c2ccc(C(=O)NCc3ccco3)cc2C1=O
    ., 0.76, 0.0, -0.5, -2.1, ., 1%
- CCN(CC)S(=O)(=O)c1cccc(NC(=O)COC(=O)CCC(=O)c2cccs2)c1
    ., 0.68, -1.9, 1.1, -0.1, ., 3%
- CCOC(=O)N1CCN(C(=O)c2cc(OC)cc(OC)c2)CC1
    ., 0.66, -0.9, -3.3, -0.4, ., 1%
- CCN1CCN(C(c2ccccc2)c2nnnn2Cc2ccc3c(c2)OCO3)CC1 (stereo not given)
    i, 0.67, -2.3, -2.3, 3.6, 1.4, 14%
- COc1ccc([N+](=O)[O-])cc1NC(=O)CCN1CCN(c2ccccc2OC)CC1
    i, 0.71, 2.2, 0.4, 6.0, -5.5, 12%
- COc1ccc(CC(=O)Nc2ccc(C(=O)Nc3nccs3)cc2)cc1OC
    i, 0.71, 3.7, -3.9, -5.6, -7.0, -7%
- CCN(CC)/C(=N\S(=O)(=O)c1ccccc1C)c1ccccc1
    i, ., -1.4, 8.0, ., -0.8, 2%
- CCOC(=O)CN1C(=O)S/C(=C/c2cccc([N+](=O)[O-])c2O)C1=O
    i, 0.67, 3.0, -4.7, 15, 0.1, 7%
- O=S(=O)(c1ccc(Cl)s1)N1CCCc2cccc(O)c21
    ., 0.72, -2.6, -2.5, 2.0, ., 0%
- COc1ccc(NC(=O)CN2CCN(S(=O)(=O)c3ccc(Cl)cc3)CC2)cc1Cl
    ., 0.78, -5.1, 6.8, 3.8, ., -2%
- CN(C)c1ccc(/C=C/C(=O)c2cccnc2)cc1
    i, 0.66, 2.6, -44, 9.8, -7.1, 15%
- CC(C)CSc1ncc(-c2cccc(C(F)(F)F)c2)cn1
    ., 0.68, -3.2, -2.3, 5.1, ., 23%
- CN1CCc2nc3sc(C(=O)C45CC6CC(CC(C6)C4)C5)c(N)c3cc2C1
    ., 0.69, 28, ., -19, ., 4%
- CCOC(=O)c1ccccc1NC(=O)c1n[nH]c(=O)c2ccccc12
    ., 0.71, 0.0, 0.6, -44, ., -4%
- CCC(C)NC(=O)CN1C(=O)NC2(CCOc3ccccc32)C1=O (stereo not given)
    i, 0.69, -4.2, ?, 3.6, -10, .
- COc1cccc(C(=O)OCCNC(=O)c2cccnc2)c1
    i, 0.66, 1.8, 1.0, 2.4, 4.8, .
- Cc1cccc(S(=O)(=O)NC(=O)C2(C)CCN2C(=O)Cc2ccsc2)c1 (stereo not given)
    i, ., -0.8, ., ., 0.8, .
- COc1ccc(NC(=S)NNC(=O)c2ccco2)c(OC)c1
    i, 0.65, 0.8, -0.1, 3.0, -2.1, 8%
- COc1ccc(NC(=O)CN2CCN(CC(=O)Nc3ccc(OC)c(OC)c3)CC2)cc1
    ., 0.79, 21, ., 2.1, ., -1%
- Cc1nn(-c2ccccc2)c2nc(-c3ccccc3)cc(C(=O)N3CCOCC3)c12
    i, 0.7, -0.9, -0.9, -47, -13, 5%
- O=C(CSc1nnc2c(n1)[nH]c1ccccc12)NCc1ccco1
    i, 0.63, -3.6, 2.6, 4.9, -1.2, 26%
- c1cncc(-c2noc(CC3CCCCC3)n2)c1
    ., 0.69, -1.1, 1.3, 0.4, ., -4%
- CN(C)c1ccc(N=Cc2nc(-c3ccccc3)oc2OC(=O)c2ccccc2)cc1
    ., 0.72, 1.6, 1.7, 7.8, ., 3%

# Compound activity deposited in PubChem BioAssay by several laboratories.
